Source: PubChem
Bead autofluor – counter-screen for toxin protease inhibitors: compound fluorescence. compound autofluorescence counterscreen, microsphere flow cytometry; stronger effect = higher value. actives 3.1% (n = 360,000). fluorescence intensity (concentration not given with the values);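 active means at least 3 SD above the mean of all compounds, about 16000 in these data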;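 further: 100 nL of 1 mM stock went into each well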
Sa ugtP lethal – growth inhibition of S. aureus ugtP deletion strain; S. aureus RN4220 ugtP deletion, OD600 growth, 16 h; some inactives read as strong as hits; growth inhibition, % (concentration not given with the values); actives 0.54% (n = 330,000);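 active means z-score under -3 and OD600 up to 0.15 on both plates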;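 further: plate controls were untreated wells for no effect and antibiotic for full effect; wells of about 80 µL received 100 nL stock; the first replicate is given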
Sa RN4220 lethal – kills Staphylococcus aureus RN4220; inhibition, % (no concentration beside the values); S. aureus RN4220 growth, OD600, 16 h; actives 0.33% (n = 330,000); AID 1259311;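 active means z-score of -3 or lower and OD600 up to 0.18 on both plates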;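 further: plate controls were untreated cells for no effect and reference antibiotic for full effect; stock transfer was 100 nL into about 80 µL; one replicate is shown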
BJeLR viability – BJeLR cell viability loss; BJeLR (HRASV12) viability, CellTiter-Glo ATP luminescence, 48 h; reference of the scale not given here; inhibition, % (test concentration not listed); actives 0.17% (n = 300,000);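 active means replicate mean above 50%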;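 further: 50 nL library stock added to about 25 µL; numbers are from one replicate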
PrP 5UTR inh – suppresses PrP 5' UTR mRNA reporter expression; actives 0.35% (n = 340,000); AID 488862; inhibition, % (test concentration not listed); cell-based PrP 5' UTR mRNA reporter, plate reader;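 active means every replicate at 50% or more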;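 further: 0 = median of the neutral control wells; tested in H4 reporter cells; numbers are from one replicate; inactives centre near -14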
Mtb hypoxia inh – inhibitors of hypoxia-regulated fluorescent reporter in Mycobacterium tuberculosis | M. tuberculosis hypoxia-regulated fluorescent reporter, fluorescence | fluorescence inhibition, % (concentration not given with the values) | actives 0.1% (n = 300,000) | AID 1159583;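 active means 35 to 45% if threefold the growth effect, above 45% if 1.5-fold the growth effect; inactive means the rest, general growth blockers included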;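 further: wells of about 50 µL received 100 nL stock; 0% = vehicle wells and 100% = reference inhibitor wells; whole bacteria with a GFP reporter of the hypoxia response; strong numbers were not always called active; many hits fall short of the cut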
Mtb hypoxia inh growth – further read-out of Mtb hypoxia inh, marked with its call; growth inhibition, %; measured here: M. tuberculosis growth (absorbance);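 0% = vehicle and 100% = reference antibiotic; read after six days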
Starred values were filed as active, the others as inactive; · = not tested or not shown.

nr | SMILES | Mtb hypoxia inh growth | BJeLR viability | Bead autofluor | PrP 5UTR inh | Mtb hypoxia inh | Sa RN4220 lethal | Sa ugtP lethal
1 | O=C1C2C3C=CC(C3)C2C(=O)N1c1ncc([N+](=O)[O-])s1 (centres undefined) | 14 | · | 3097 | -1 | 10 | 3.2 | 5
2 | CS(=O)(=O)c1ccc(NCC2CCCO2)c([N+](=O)[O-])c1 (centres undefined) | 0 | -5 | 3940 | -33 | 2 | 3.0 | 8
3 | C/C(=N\NC(=O)Cn1c(-c2ccccn2)nc2ccccc21)c1cccc(O)c1 | · | -14 | 2663 | -7 | · | · | ·
4 | CCCCNC(=S)N/N=C/c1cc(C)ccc1C | · | -15 | 2032 | -7 | · | · | ·
5 | COc1cc(C(c2c(NC(=O)c3ccco3)sc(C)c2C)N2CCOCC2)cc(OC)c1OC (centres undefined) | 2 | · | 7002 | 5 | -2 | -0.6 | -3
6 | CN(C)c1ccc(-c2nnn(CC(=O)N3c4ccccc4CCc4ccccc43)n2)cc1 | 14 | -4 | 13061 | -22 | 3 | -0.5 | -9
7 | CC(NC(=O)COc1ccc(-c2nnco2)cc1)c1ccc(Cl)cc1Cl (centres undefined) | 7 | -5 | 1991 | 1 | 5 | -2.1 | 0
8 | O=C(NN=Cc1c(F)c(F)c(F)c(F)c1F)c1ccc(NS(=O)(=O)c2cccs2)cc1 | 15 | · | 3650 | -9 | 8 | 13 | -6
9 | Cc1nc2c(ncn2-c2ccccc2)c(=O)n1NC(=O)CN1CCCCC1 | 4 | 4 | 4721 | -11 | 1 | 4.3 | 6
10 | COc1ccccc1NC(=O)C(=O)NCCC1CCCCN1S(=O)(=O)c1ccccc1 (centres undefined) | 2 | 3 | 6788 | -2 | 5 | -2.0 | 6
11 | COc1ccc(-c2csc(NCc3ccco3)n2)cc1C | 7 | -2 | 2933 | -90 | 10 | -15 | 19
12 | O=C(CCCc1ccccc1)NCCS(=O)(=O)N1CCN(c2ccc(F)cc2)CC1 | 0 | -3 | · | -26 | 6 | 3.7 | 14
13 | [O-][n+]1c2c(nn1-c1ccccc1)C(=NO)CCC2 | 8 | · | · | · | 13 | 2.6 | -2
14 | O=S(=O)(c1ccc(F)cc1)N1CCCC(c2nc(-c3ccc(F)cc3)no2)C1 (centres undefined) | 10 | · | 3995 | -17 | 16 | 1.5 | 4
15 | COC(=O)CCCC1=CC2=C(c3ccccc3)C(=O)C(C)(OC(=O)C3CCCC3)C(=O)C2=CN1CC(C)C (centres undefined) | 7 | 2 | 3798 | -10 | 1 | 8.1 | -6
16 | CCNC(=S)N1CCC(Cc2ccccc2)CC1 | 3 | 0 | 5996 | -18 | 13 | -0.9 | 3
17 | CCCCOc1cccc(C2/C(=C(\O)c3ccc4c(c3)OCCO4)C(=O)C(=O)N2CCN2CCOCC2)c1 (centres undefined) | -2 | -10 | 6741 | 1 | 6 | 4.2 | -3
18 | CCCN(CC(=O)Nc1ccccc1C)C(=O)c1ccc(COc2ccccc2)cc1 | -4 | -6 | 6613 | -11 | -1 | -0.7 | 4
19 | Nc1nc(CSc2nnnn2-c2ccc(Cl)cc2)nc(N2CCOCC2)n1 | 3 | -5 | 3092 | -12 | 9 | -13 | -3
20 | COc1cccc(C(CC(=O)O)NS(=O)(=O)c2ccc3c(c2)N(C(C)=O)CC(C)O3)c1 (centres undefined) | -4 | 5 | 4539 | -4 | 2 | -1.2 | -4
21 | Cc1ccc(-c2csc(N/N=C/c3ccco3)n2)cc1 | · | 3 | 23231* | -64 | · | · | ·
22 | CC(=NNC(=O)c1ccc(Cn2cc([N+](=O)[O-])cn2)o1)c1cccc(NC(=O)C(C)C)c1 | 1 | · | · | · | -2 | 0.4 | 1
23 | CCOc1cc2[nH]c(=S)n(CCN3CCC(C)CC3)c(=O)c2cc1OCC | 9 | 2 | 10801 | 12 | 8 | 1.0 | 3
24 | COc1cc(N/N=C(\C)c2ccc(N)cc2)nc(-c2ccccc2)n1 | · | 12 | 4649 | -19 | · | · | ·
25 | CC(=O)N1CCOc2ccc(S(=O)(=O)N3CCCC(C)C3)cc21 (centres undefined) | -2 | 0 | 6817 | -1 | 2 | 3.4 | 0
26 | COc1ccc(-n2c(N)cc(=O)nc2SCC(=O)N2CCN(c3ccccc3)CC2)cc1 | -6 | -2 | 6629 | -93 | 4 | 4.5 | 10
27 | Cc1nc(N)nc(C)c1Cc1ccccc1 | · | 3 | 2765 | -25 | · | 5.2 | 13
28 | Cc1ccc(N(CC(=O)N2CCN(C3CCCCC3)CC2)S(=O)(=O)c2cccnc2)cc1 | 14 | · | 21207* | 3 | -2 | -0.6 | 3
29 | COc1ccc2nc(C)cc(SCC(=O)NN=Cc3ccccc3)c2c1 | 10 | · | · | · | 15 | -0.5 | -9
30 | CCS(=O)(=O)N1CCC(c2nc3ccccc3[nH]2)CC1 | 0 | -4 | 5886 | -17 | 4 | 2.0 | -1
31 | CCN(CC)C(=O)C1CCCN(Cc2ccccc2F)C1 (centres undefined) | 8 | -4 | 8338 | -35 | 1 | 4.2 | -11
32 | CC(C)CCNC(=O)C1CCN(S(=O)(=O)c2ccc(-n3cnnn3)cc2)CC1 | -4 | -5 | 4230 | -8 | -7 | -2.5 | -3
33 | Oc1ccccc1C1Nc2cccc3cccc(c23)N1 | · | 1 | 4600 | -37 | · | -6.0 | 0
34 | O=C(CNC(=O)c1ccccc1)NCc1ccc(Cl)cc1 | 2 | -2 | 4171 | -4 | 0 | -2.0 | -4
35 | CCCNC(=O)c1c(N)n(Cc2ccc3c(c2)OCO3)c2nc3ccccc3nc12 | -13 | · | 23041* | -16 | 3 | 3.4 | -5
36 | Cc1cc(C)n2nc(SCc3nnc(SCc4ccccc4)s3)nc2n1 | 10 | 11 | 6566 | -29 | 17 | 3.2 | 6
37 | CCC(C)NC(=O)CSC1=Nc2ccccc2C2=NC(c3ccccc3)C(=O)N12 (centres undefined) | 4 | 3 | 3675 | -18 | 6 | 0.0 | 2
38 | O=C(Nc1ccc2c(c1)C(=O)N(CC1CCCO1)C2=O)c1ccc(Cl)c(Cl)c1 (centres undefined) | 2 | 4 | 22241* | -16 | -1 | 2.7 | -3
39 | N#Cc1nc(-c2ccccc2F)oc1N1CCCCC1 | -2 | -4 | 2873 | -18 | 0 | 4.2 | -11
40 | OCCC1CN(Cc2cnc(-c3ccccc3)s2)CCN1Cc1ccccc1 (centres undefined) | 7 | 7 | 1985 | -7 | 11 | 4.3 | -1
41 | CN(C)CCNc1nc2sc3c(c2c(=O)n1-c1ccc(F)cc1)CCCCC3 | 11 | 9 | 4547 | -20 | 10 | -0.3 | 5
42 | CCOC(=O)COn1c(=O)c(-c2ccc(Br)cc2)[n+]([O-])c2ccccc21 | 8 | -3 | 3807 | -19 | -2 | -1.4 | 2
43 | NC(=NOC(=O)c1ccc(Cl)c([N+](=O)[O-])c1)c1ccccc1 | 7 | · | · | · | 10 | 1.2 | 1
44 | Cc1cccc(-c2noc(CNC(=O)COc3ccccc3C)n2)c1 | 3 | -11 | 5775 | -3 | -3 | -9.4 | -5
45 | Cc1cc2c(cc1S(=O)(=O)NCC(C)c1ccccc1)n(C)c(=O)c(=O)n2C (centres undefined) | · | -13 | 5858 | 5 | · | 5.2 | 8
46 | O=C(Cn1ccc(NC(=O)OCc2ccccc2)nc1=O)NCc1ccc2[nH]ccc2c1 | 8 | · | 3913 | -4 | 8 | 4.9 | 0
47 | COc1ccc(S(=O)(=O)N2CCOCC2)cc1NC(=O)Cn1nnc2ccccc2c1=O | -1 | -22 | 4309 | 3 | 10 | 4.2 | 3
48 | CS(=O)(=O)c1ccc(C(=O)OCc2nnc(-c3ccc(Cl)cc3)o2)cc1[N+](=O)[O-] | 0 | 3 | 4328 | -33 | 4 | 2.9 | -4
49 | O=C(CSc1nnc2ccccn12)NC(=O)NC1CCCC1 | 2 | 12 | 9854 | -43 | -3 | 0.2 | 0
50 | CCn1cc(C(=O)NC2CCCCCC2)c2cc(OC)c(OC)cc2c1=O | 4 | -4 | 4319 | -17 | 6 | -0.4 | -2
51 | CSc1nsc(SCC(=O)Nc2ccc(C(=O)O)cc2)n1 | 11 | -8 | 5935 | -25 | 2 | -0.2 | 10
52 | CC[C@@]1(C(=O)OC)N[C@H](CN(C)C(=O)Nc2ccc(C)cc2)[C@@H]2C(=O)N(C)C(=O)[C@@H]21 | 2 | · | 3734 | -1 | 3 | 3.6 | 2
53 | S=C(NCc1ccco1)NCc1ccco1 | 11 | · | 3945 | -1 | 22 | 4.6 | 3
54 | CCC(C)NC(=O)C1CCN(S(=O)(=O)N2CCOCC2)CC1 (centres undefined) | 0 | 4 | 4756 | -16 | 4 | 5.9 | 4
55 | Cc1ccc(NC(=O)NC(=O)CN2CCC(C(N)=O)CC2)c(C)c1 | -1 | · | 2980 | -39 | 10 | 4.5 | 7
56 | C/C(=N\O)c1ccc2c(c1)CC(C)O2 (centres undefined) | · | -8 | 5640 | -29 | · | · | ·

Next results:
nr | SMILES | Mtb hypoxia inh growth | BJeLR viability | Bead autofluor | PrP 5UTR inh | Mtb hypoxia inh | Sa RN4220 lethal | Sa ugtP lethal
57 | O=C(O)CCC(=NNc1ccc(S(=O)(=O)N2CCOCC2)cc1[N+](=O)[O-])c1cccs1 | 0 | · | · | · | 21 | 4.7 | 3
58 | COc1ccccc1-c1ccc(SCc2ccc(F)cc2)nn1 | 8 | -4 | 4144 | -17 | -4 | 18 | 1
59 | CC12C(=O)N(c3ccc(OC(=O)c4ccco4)cc3)C(=O)C1C1c3ccccc3C2c2ccccc21 (centres undefined) | 4 | -6 | 2428 | -8 | 10 | 7.3 | -2
60 | CCCC1S/C(=N/N=C/c2ccc(C)cc2)N(Cc2ccc(OC)cc2)C1=O (centres undefined) | · | 2 | 8924 | -28 | · | · | ·
61 | Cc1nonc1OCCNc1ccc([N+](=O)[O-])c2cccnc12 | · | -12 | 2394 | -54 | · | · | ·
62 | CC(=O)Nc1ccc(NC(=O)CN2C(=O)COc3ccc(S(=O)(=O)N4CCCCC4)cc32)cc1 | 2 | 7 | 5816 | -9 | 10 | 1.5 | 0
63 | COc1ccc(CNC(=S)NC2CCCCC2)cc1 | 0 | 5 | 5657 | -13 | 15 | 0.3 | 2
64 | O=C(CCn1nc(-c2ccccc2)ccc1=O)N1CCN(c2ccccn2)CC1 | 3 | 9 | 2430 | -1 | 7 | 2.9 | 7
65 | NC(=O)c1cnn2c(-c3ccc(Cl)cc3Cl)ccnc12 | 0 | -18 | 3754 | -9 | 5 | 4.0 | -1
66 | CCOC(=O)C1CCN(C(=S)NC2CCCC2)CC1 | 9 | -4 | 2284 | -7 | -2 | 1.4 | 2
67 | Cc1oc(-c2ccccc2F)nc1CS(=O)CC(=O)NC1CCCC1 (centres undefined) | 3 | 1 | 5376 | -22 | 18 | 4.8 | -2
68 | CC(=O)Nc1ccc2c(c1)Cc1c-2cc(Cl)c(NC(C)=O)c1Cl | 2 | · | 4003 | -29 | 5 | 4.4 | 2
69 | Cc1cc(C)cc(NC(=O)CCCCCN2C(=O)[C@@H]3Cc4ccccc4CN3C2=O)c1 | -6 | 7 | 5776 | -4 | 10 | 5.4 | 5
70 | CC1(C)OC2CC3C4CC(F)C5=CC(=O)CC[C@]5(C)C4C(O)C[C@]3(C)[C@]2(C(=O)CO)O1 (some centres undefined) | 0 | · | · | · | -6 | 3.1 | -2
71 | CN(C(=O)c1cccc(N2C(=O)C3C4C=CC(C4)C3C2=O)c1)C1CCCCC1 (centres undefined) | -1 | -11 | 5580 | -5 | 0 | 2.0 | -1

Rows are unselected. Share with any hit: about 4%.
